HSV replic up: HSV replication enhancement; HSV replication augmentation in cells, fold increase; 220,000 tested, 0.005% active; AID 1956; maximum fold increase;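 active means peak rise of 1.5-fold or more in the series; tested in PC3 cells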;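 further: first round at 10 µM; read as green reporter fluorescence; hits show the peak of a series up to 25 µM; 1 = signal of infected wells without compound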
HSV replic up primary fold: further read-out of HSV replic up, marked with its call; fold increase; compound at 10 µM; measured here: primary screen fold increase 10 uM; tested in PC3 cells;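 GFP signal in the first replicate; 1 = infected wells without compound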
The depositor's hits bear a star; i = inactive. A portion of the library. The share of hits here may be higher or lower than overall.

Each structure is followed by: HSV replic up, HSV replic up primary fold
CCCNC(=O)C1(CC2CC(c3ccccc3)=NO2)CCN(C(=O)c2cc(OCC)c(OCC)c(OCC)c2)CC1 (stereo unspecified)
    i, 0.98
C[C@H]1CCC[C@]2(O[C@H](CCO)C[C@H](O)[C@H]2O)O1
    i, 0.89
Cn1c(N)c(S(=O)(=O)NCc2ccccc2)c(=O)n(C)c1=O
    i, 0.82
COC(=O)[C@@H]1C[C@]2(Br)c3ccccc3N(S(=O)(=O)c3ccccc3)[C@@H]2N1C(=O)OC
    i, 0.8
CCOC(=O)c1ccc(-n2c(-c3ccco3)nc3ccccc3c2=O)cc1
    i, 1
COC(=O)C1=C(C(=O)OC)[C@@H]2N(C)c3ccc(OC)cc3[C@@]23C[C@@H](C(=O)OC)N(C(=O)c2ccco2)C3=N1
    i, 0.82
OCC[C@H]1C[C@@H](O)[C@H](O)[C@@]2(CCCO2)O1
    i, 0.91
COC(=O)C1=C(C(=O)OC)[C@@H]2Nc3ccccc3[C@@]23C[C@@H](C(=O)OC)N(C(=O)NC2CCCCC2)C3=N1
    i, 0.83
Brc1ccc(-c2noc3c2-c2nc(-c4ccccc4)sc2CC3)cc1
    i, 0.77
CC1CCCN(c2nc3c(c(=O)n(C)c(=O)n3C)n2Cc2ccccc2)C1 (stereo unspecified)
    i, 0.9
CCCOc1ccc(Cl)cc1Nc1nc(NCCO)nc(N2CCCC2)n1
    i, 0.59
CCOC(=O)c1c(NC(=O)c2ccc(Cl)s2)sc(C)c1C
    i, 1.1
CC1=C(CC[C@@H](C)CO)OC2CC3C4CCC5CC(O)CCC5(C)C4CC(=O)C3(C)C12 (stereo partly specified)
    i, 0.9
CC(C)=CCc1c(O)cc(O)c2c(=O)c(O[C@@H]3O[C@@H](C)[C@H](O)[C@@H](O)[C@H]3O)c(-c3ccc(O)cc3)oc12
    i, 0.68
COC(=O)C1=C[C@@H](C(=O)OC)[C@@H]2C3=C(C(=O)C2(C)C)[C@H](C)n2c(=O)n(-c4ccccc4)c(=O)n2[C@@H]3C1
    i, 0.97
CC1(C)CC(=O)C=C(c2ccc3[nH]ccc3c2)C1
    i, 0.99
Cc1ccc(CN2C(=O)[C@@H]3Cc4c([nH]c5ccccc45)C(C)(C)N3C2=O)cc1
    i, 1
N#Cc1cccnc1N1CCN(C(=O)c2ccc3c(c2)S(=O)(=O)c2ccccc2C3=O)CC1
    i, 0.72
CCN1C(=O)N[C@@H](c2cccc(C(F)(F)F)c2)[C@@H](C(=O)OC)[C@H]1C
    i, 0.88
C=C[C@@]1(C)CC(=O)[C@]2(O)[C@@]3(C)[C@@H](O)CCC(C)(C)[C@@H]3[C@H](OC(C)=O)[C@H](O)[C@@]2(C)O1
    i, 0.87

Further structures
Each structure is followed by: HSV replic up, HSV replic up primary fold
CO[C@H]1O[C@@H]2O[C@@]3(C)CC[C@H]4[C@H](C)CC[C@@H]([C@H]1C)[C@@]24OO3
    i, 0.71
CN(C)CCc1c[nH]c2ccc(Cn3cncn3)cc12
    i, 1
CC(C)c1cc(C(C)C)c(S(=O)(=O)N2c3ccccc3[C@@]3(Br)C[C@H]4C(=O)N[C@@H](Cc5ccccc5)C(=O)N4[C@@H]23)c(C(C)C)c1
    i, 0.89
COC(=O)C1=C(C)N(Cc2ccco2)C(=O)N[C@@H]1c1ccc(Br)cc1
    i, 0.9
O=C(Nc1ccccc1)C1=C[C@H](c2ccc(C(F)(F)F)cc2)C[C@H](OCCCCO)O1
    i, 0.78
COc1cc(O)cc2c1[C@@H]1Oc3c(ccc(O)c3CC=C(C)C)[C@@H]1CO2
    i, 0.96
O=C(NCCc1ccccc1)[C@@H]1CC=C[C@@H]2CCN(Cc3ccccc3)C(=O)[C@@H]21
    i, 0.87
CCCNC(=O)C1(CC2CC(c3ccccc3)=NO2)CCNCC1 (stereo unspecified)
    i, 0.79
CCCC[C@@H]1C[C@H]1[C@@H](NC(=O)c1ccco1)c1ccc(C(=O)OC)cc1
    i, 0.74
O=C(NCc1cccc(C(F)(F)F)c1)C1CC(c2ccccc2F)=NO1 (stereo unspecified)
    i, 0.99
CC(=O)c1cccc(-c2ccc3c(=O)[nH]c(Nc4ccccc4)cc3c2)c1
    i, 0.69
Brc1ccccc1-n1nnc(-c2cnc3ccccc3c2)n1
    i, 0.99
CC(C)(C)c1nc2c(s1)CCc1onc(-c3ccc(Br)cc3)c1-2
    i, 0.86
COC(C[C@@H]1O[C@@H]1C(=O)[C@H](C)OCc1ccccc1)OC
    i, 0.81
CC#CCN1c2ccccc2[C@]23C[C@@H](C(=O)OC)N(C(=O)NC(C)(C)C)C2=NC(C(=O)OC)=C(C(=O)OC)[C@H]13
    i, 1
COC(=O)C1=C(C(=O)OC)[C@@H]2Nc3ccccc3[C@@]23C[C@@H](C(=O)OC)N(C(=O)c2ccco2)C3=N1
    i, 0.82
CCC/C=C1/CCCOC(C(=O)NCc2ccc(S(C)(=O)=O)cc2)(C(F)(F)F)C1 (stereo unspecified)
    i, 0.78
CCCCC1=CC2=CC(=O)C(C)(OC(=O)CC)C(=O)C2=CO1 (stereo unspecified)
    i, 0.88
C=C(C)c1sc(-c2ccccc2)nc1C
    i, 1.1
CC[C@H]1OC(=O)[C@H](C)[C@@H](O[C@H]2C[C@@](C)(OC)[C@@H](O)[C@H](C)O2)[C@H](C)[C@@H](O[C@@H]2O[C@H](C)C[C@H](N(C)C)[C@H]2O)[C@](C)(O)C[C@@H](C)CN(C)[C@H](C)[C@@H](O)[C@]1(C)O
    i, 0.89

(next part)
Each structure is followed by: HSV replic up, HSV replic up primary fold
O=C(O)C1CCCN(CCC=C(c2ccccc2)c2ccccc2)C1 (stereo unspecified)
    i, 0.89
C=CC1=C2C=C(C3CC3)N(CC3CC3)C=C2C(=O)C(C)(OC(=O)c2ccco2)C1=O (stereo unspecified)
    i, 1.1
O=C(NCc1nc2ccccc2[nH]1)C1=C[C@H](c2ccc(C(F)(F)F)cc2)C[C@H](OCCCCO)O1
    i, 0.84
COc1cccc(N2[C@@H](CC(=O)O)c3ccccc3S2(=O)=O)c1
    i, 0.73
CCc1nnc(SCc2ccc([N+](=O)[O-])cc2)nc1CC
    i, 0.94
C=C1CCN([C@@H](CC(C)C)C(=O)NCc2ccc(OC)cc2)S(=O)(=O)c2ccccc21
    i, 0.91
C[C@H]1CCC[C@]2(O[C@H](CCO)C[C@@H](O)[C@@H]2O)O1
    i, 0.8
CCOC(=O)[C@@H]1[C@H]2COc3ccc(Br)cc3[C@@H]2N2C(=O)N(c3ccc(Cl)cc3)C(=O)[C@]12C
    i, 0.87
O=C1CC2(CCOCC2)Oc2ccc3ccccc3c21
    i, 0.93
CN(CCCN1c2ccccc2CCc2ccccc21)CC(=O)c1ccc(Cl)cc1
    i, 0.83
O=c1[nH]c(Nc2ccccc2)cc2cc(Br)ccc12
    i, 0.99
COC(=O)CNC(=O)C1Nc2ccc(OC(F)(F)F)cc2C2C=CCC12 (stereo unspecified)
    i, 0.89
O=C(C1=C[C@H](c2csc3ccccc23)C[C@H](OCc2ccc(CO)cc2)O1)N1CCCCCCC1
    i, 0.79
CCCCCCCCCC(=O)N[C@H](CN1CCOCC1)[C@H](O)c1ccccc1
    i, 0.79
COc1cccc(CN2C(=O)[C@H]3Cc4c([nH]c5ccccc45)C(C)(C)N3C2=O)c1
    i, 0.86
CC(C)CCNC(=O)c1c(CSc2ccc(Cl)cc2)noc1C(=O)NCc1ccccc1
    i, 1.1
CC1(C)CC(=O)C=C(c2cccnc2)C1
    i, 1.2
CCCCCCCCN1[C@@H](CC(=O)OC)c2cc(C(F)(F)F)ccc2S1(=O)=O
    i, 0.91
c1ccc(CSc2nnc(-c3ccccc3)c(-c3ccccc3)n2)cc1
    i, 0.75
CCOC(=O)c1cc(-c2ccccc2)nn1CC1CC(c2cccnc2)=NO1 (stereo unspecified)
    i, 0.68

(more compounds)
Each structure is followed by: HSV replic up, HSV replic up primary fold
C#CCOCCOCCOCCNc1nc(N2CCN(C(=O)C([C@@H](C)CC)n3cc(C(N)COC(=O)C(F)(F)F)nn3)CC2)nc(N2CCN(C(=O)[C@H](Cc3ccc(O)cc3)n3cc(C(N)[C@H](C)CC)nn3)CC2)n1 (stereo partly specified)
    i, 0.87
COC(=O)c1c(C)c(OC(=O)c2c(C)cc(O)c(C=O)c2O)cc(C)c1O
    i, 1.1
Cc1cc(=O)cc(C)n1-c1ccc2c(c1)nc(C)n2-c1ccccc1
    i, 1.1
O=C(NCc1ccccn1)C1Nc2ccc(OC(F)(F)F)cc2C2C=CCC12 (stereo unspecified)
    i, 0.83
CC(C)(C)OC(=O)NCCCC1=CC2=CC(=O)C(C)(OC(=O)c3ccco3)C(=O)C2=CO1 (stereo unspecified)
    i, 1.1
Cc1cccc(N(CC(=O)NC2CCCCC2)C(=O)CCC(=O)Nc2ccccn2)c1
    i, 1.1
O=C1c2ccccc2S(=O)(=O)c2cc(N3CCOCC3)ccc21
    i, 0.96
CC(C)CNC(=O)C1Nc2ccccc2C2C=CCC12 (stereo unspecified)
    i, 0.85
Oc1ccc(Cl)cc1Nc1nc(NCC2CCCO2)c2ccccc2n1 (stereo unspecified)
    i, 0.68
NC(=Nc1ccccc1)NC(=O)c1nc(Cl)c(N)nc1N
    i, 0.59
Cn1c(N)c(C(=O)Nc2ccccc2)c(=O)[nH]c1=O
    i, 0.94
CCOC(=O)CN1C(=O)N[C@@H](c2cccc(F)c2)C(C(C)=O)=C1C
    i, 0.79
CC(C(=O)c1ccc(-c2ccccc2)cc1)[n+]1cccc(NC(=O)c2ccccc2)c1 (stereo unspecified)
    i, 1
COC(=O)C1=C(C)N(CCCCCC(=O)O)C(=O)NC1c1ccccc1 (stereo unspecified)
    i, 0.84
COCCN1C(=O)N[C@@H](c2ccco2)C(C(=O)OC)=C1C
    i, 0.86
COc1ccc(CNC(=O)NS(=O)(=O)c2ccc(C)cc2)cc1
    i, 0.91
O=C(O)c1ccc(-c2noc(-c3ccccc3C(F)(F)F)n2)cc1
    i, 0.82
O=C(O)c1cccc(O)c1O
    i, 0.96
Cc1nc(-c2ccc(Cl)cc2)sc1C1(C)CC(c2ccccc2Br)=NO1 (stereo unspecified)
    i, 0.79
O=C(O)C1=C[C@@H](c2ccc(C(F)(F)F)cc2)C[C@@H](OCCCCO)O1
    i, 0.9

No new results follow: 2 of the compounds above.
Each structure is followed by: HSV replic up, HSV replic up primary fold
COC(=O)C1=C(C)N(CCCCCC(=O)O)C(=O)NC1c1ccccc1 (stereo unspecified)
    i, 0.84
COCCN1C(=O)N[C@@H](c2ccco2)C(C(=O)OC)=C1C
    i, 0.86

Further results
Each structure is followed by: HSV replic up, HSV replic up primary fold
C=CC[C@]12C=C(OC)C(=O)C(OC)=C1O[C@@H](c1ccc3c(c1)OCO3)[C@H]2C
    i, 1
O=C(NCCF)C1Nc2ccc(OC(F)(F)F)cc2C2C=CCC12 (stereo unspecified)
    i, 1.2
COc1ccc(C2=Nn3c(nnc3-c3cccnc3)SC2)cc1OC
    i, 0.8
CC(=O)C[C@H]1c2cc(C(F)(F)F)ccc2S(=O)(=O)N1Cc1ccccc1
    i, 0.81
CC[C@@H]1[C@H]2CCCC(=O)N3CC[C@@H](C[C@H]1O)[C@@H]23
    i, 0.86
COc1ccccc1CN1[C@@H](CC(=O)O)c2cc(F)ccc2S1(=O)=O
    i, 0.87
O=C(Nc1ccccc1)[C@@H]1CC=C[C@@H]2CCN(Cc3ccccc3)C(=O)[C@@H]21
    i, 0.88
CCC/C=C(\CCC)C(NC(=O)c1ccc(C(=O)OC)cc1)c1ccc(C(=O)OC)cc1 (stereo unspecified)
    i, 0.96
O=C(NCc1ccccc1)C1=C[C@@H](C2CCCCC2)C[C@@H](OCCCCO)O1
    i, 0.88
N#CCc1c(C#N)c(N)nc(N2CCCC2)c1C#N
    i, 0.85
COc1ccccc1Nc1nc(N2CCCC2)nc(N2CCOCC2)n1
    i, 0.88
Cc1cc(CNC(=O)C2(C(F)(F)F)C/C(=C\Cc3ccccc3)CCCO2)nn1C (stereo unspecified)
    i, 1.1
Brc1ccc(-c2noc3c2-c2nc(C4CCCCC4)sc2CC3)cc1
    i, 0.92
CS(=O)(=O)c1ccc(CNC(=O)C2(C(F)(F)F)C/C(=C/CCO)CCCO2)cc1 (stereo unspecified)
    i, 0.82
Cc1ccc2oc3c(c(=O)c2c1)C(c1cccs1)N(CCCN(C)C)C3=O (stereo unspecified)
    i, 1.1
COc1ccc(-c2nnc3sc(-c4ccccn4)nn23)cc1
    i, 0.8
CC(=O)C[C@H]1c2ccccc2S(=O)(=O)N1c1ccccc1
    i, 0.93
CCOC(=O)CCc1cnccc1-c1cccc(OC)c1O
    i, 0.96
CC1=C(/C=C/C(C)=C/C=C/C(C)=C/CO)C(C)(C)CCC1
    i, 0.99
Cn1c(NCCN(CCO)CCCc2ccc([N+](=O)[O-])cc2)cc(=O)n(C)c1=O
    i, 0.81

Six compounds out of the list above, ordered by the number in HSV replic up primary fold, low to high.
Each structure is followed by: HSV replic up, HSV replic up primary fold
COc1ccc(C2=Nn3c(nnc3-c3cccnc3)SC2)cc1OC
    i, 0.8
N#CCc1c(C#N)c(N)nc(N2CCCC2)c1C#N
    i, 0.85
CC[C@@H]1[C@H]2CCCC(=O)N3CC[C@@H](C[C@H]1O)[C@@H]23
    i, 0.86
COc1ccccc1Nc1nc(N2CCCC2)nc(N2CCOCC2)n1
    i, 0.88
CC(=O)C[C@H]1c2ccccc2S(=O)(=O)N1c1ccccc1
    i, 0.93
CCOC(=O)CCc1cnccc1-c1cccc(OC)c1O
    i, 0.96

The list continues:
Each structure is followed by: HSV replic up, HSV replic up primary fold
COc1cccc(SCc2noc(C(=O)NCCCN3CCOCC3)c2C(=O)NCCCN2CCOCC2)c1
    i, 0.75
CCN(CC)CCCN1C(=O)C(=O)/C(=C(/O)c2ccccc2)C1c1cc(OC)ccc1OC (stereo unspecified)
    i, 1
CC(C)=CCc1c(O)cc2c(=O)c3ccc(O)cc3oc2c1O
    i, 0.93
Cc1ccccc1CN1[C@@H](Cc2ccccc2)COCCS1(=O)=O
    i, 0.73
N#C[C@H]1C2OC2c2ccccc2N1C(=O)c1ccccc1 (stereo partly specified)
    i, 0.93
Nc1nc(N)c2[nH]cnc2n1
    i, 0.65
